GIRK2 activ: GIRK2 channel activation | calls only for hits at 25 µM | 0.05% of 63,000 active | HEK293-GIRK2 thallium flux, Thallos fluorescence | P48051;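 active = among the strongest 0.2% of first-round signals and kept after retests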;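 also: first round at about 10 µM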
Target sequence (P48051 whole entry, looked up): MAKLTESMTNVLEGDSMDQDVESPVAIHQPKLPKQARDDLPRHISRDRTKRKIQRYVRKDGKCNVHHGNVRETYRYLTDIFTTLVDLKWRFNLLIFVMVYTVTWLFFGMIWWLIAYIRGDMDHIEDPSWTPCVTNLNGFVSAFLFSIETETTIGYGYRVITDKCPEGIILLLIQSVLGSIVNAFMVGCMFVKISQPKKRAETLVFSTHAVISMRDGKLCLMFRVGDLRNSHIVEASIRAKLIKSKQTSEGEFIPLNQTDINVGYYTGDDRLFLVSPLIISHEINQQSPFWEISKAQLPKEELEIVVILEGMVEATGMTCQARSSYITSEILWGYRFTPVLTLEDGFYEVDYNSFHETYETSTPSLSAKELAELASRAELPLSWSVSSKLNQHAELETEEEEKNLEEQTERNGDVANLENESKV
Calls only; i = inactive. The list is partial; the hit share may differ from the screen's.

Compound	GIRK2 activ
O=C(Cn1c(-c2ccccn2)nc2ccccc21)NCC1CCCO1 (configuration not stated)	i
Cc1cc(C)c(NC(=O)Cn2nc3c(Oc4ccccc4)nccn3c2=O)c(C)c1	i
COc1cn2c(cc1=O)C(=O)N(CCNC(=O)C1c3ccccc3Oc3ccccc31)CC2	i
CCn1ccc(C(=O)Nc2sc3c(c2-c2nc4ccccc4s2)CCN(C)C3)n1	i
O=C(NCc1cnn2ccccc12)c1cc(C2CC2)on1	i
CCc1cccc(C)c1NC(=O)CSc1nnc2ccc(C(=O)Nc3cccc(F)c3)cn12	i
COC(=O)N1CCC(CNC(=O)NC(c2ccccc2)c2ccccc2)CC1	i
COc1ccc(OC)c(-c2c(C)c3cc(O)ccc3oc2=O)c1	i
C/C=C/Cn1c(=O)c2c(nc3n(Cc4ccccc4)c(C)cn23)n(C)c1=O	i
COCCCn1c(C(=O)N2CCN(c3ccccc3)CC2)cc2c(=O)n3ccccc3nc21	i
O=C(NCCOc1ccccc1)Nc1ccc(N2CCCC2=O)cc1	i
O=S1(=O)CCCCN1c1ccc(S(=O)(=O)N2CCC3(CC2)OCCCO3)cc1	i
CC(C)(C)OC(=O)Nc1ccc(-c2cc(C(=O)NCCCCCCC(=O)NO)no2)cc1	i
O=C(NCC#CCN1CCCC1)C1(c2ccccc2)CCOCC1	i
CN(CC(=O)Nc1ccccc1C(N)=O)c1nc2c(Cl)cccc2s1	i
O=C(NCCSc1c[nH]c2ccccc12)c1cnn2c1OCCC2	i
O=C(Cn1cnc2ccccc2c1=O)N1CCC(Cn2c(C(F)(F)F)nc3ccccc32)CC1	i
NC(=O)c1nnn(-c2ccc(NC(=O)C3CC3)cc2)n1	i
Cc1cc(C(O)CCNC(=O)c2cc(Cl)ccc2Cl)c(C)o1 (configuration not stated)	i
Cc1ccccc1C(=O)NC(C(=O)N1CCN(C(=O)c2ccco2)CC1)S(=O)(=O)c1ccccc1 (configuration not stated)	i
Cn1nnn(-c2ccc(NS(=O)(=O)c3ccccc3F)cc2)c1=O	i
COC(=O)c1ccc(C2c3c(oc4ccc(F)cc4c3=O)C(=O)N2c2ccccn2)cc1 (configuration not stated)	i
COc1ccc(S(=O)(=O)NCC(c2ccsc2)N2CCN(C)CC2)cc1C (configuration not stated)	i
Cc1noc(-c2ccc(SCC(=O)NCc3ccc(F)cc3F)nc2)n1	i
Cc1ccc(-n2ncc3c(C)nnc(SCC(=O)NCc4ccc5c(c4)OCO5)c32)cc1C	i
CCn1c(=O)[nH]c2c(C(=O)N3CC=C(c4ccccc4)CC3)snc2c1=O	i
COc1cc(C2NC(=O)NC(C)=C2C(=O)Nc2ccc(C)c(C)c2)cc(OC)c1OC (configuration not stated)	i
O=C(Nc1ccc(SCCCC(=O)N2CCOCC2)nn1)C1CC1	i
COCCNC(=O)c1nnn(-c2ccc(NC(=O)CCSc3ccccc3)cc2)n1	i
COc1ccc(OC)c(-c2cc(C(=O)N3CCC(COCc4ccc(Cl)cc4)CC3)n(C)n2)c1	i
O=C(COc1ccc(Cl)cc1)NCCC(O)C1CC1 (configuration not stated)	i
O=C1CC(c2noc(Cc3cccs3)n2)CN1c1ccc(F)cc1 (configuration not stated)	i
O=C1CCC(c2nc(-c3ccc4c(c3)OCO4)no2)=NN1Cc1ccccc1	i
O=C(NCC1CCN(c2cnccn2)CC1)c1ccccc1Br	i
Cn1nc(CNS(=O)(=O)c2cccnc2)c2ccccc2c1=O	i
N#Cc1ccc(-c2csc(NC(=O)C3CCCN3S(=O)(=O)c3cccs3)n2)cc1 (configuration not stated)	i
COc1cccc(C(=O)NNC(=O)c2cccn(Cc3ccc(F)cc3)c2=O)c1OC	i
Cc1cn2c3c(=O)n(CCCc4ccccc4)c(=O)n(C)c3nc2n1-c1ccccc1N	i
COc1cc(OC)cc(N2C(=O)C3N=NN(Cc4nc(-c5ccc(Cl)cc5)no4)C3C2=O)c1 (configuration not stated)	i
O=C(c1cc(Br)ccc1Cl)N1CCN(c2ccc(-n3ccnc3)nn2)CC1	i
CN1c2ccc(Cl)cc2C(=O)NC12CCN(C(=O)c1ccc3c(c1)OCO3)CC2	i
Cc1c(C)n2c3c(=O)n(C/C=C/c4ccccc4)c(=O)n(C)c3nc2n1C(C)C	i
CCN(CCCNC(=O)CCc1nnc2ccc(-c3ccccc3)nn12)c1ccccc1	i
COc1ccc(Cl)cc1NC(=O)C(=O)NCC(C)(O)CCSC (configuration not stated)	i
Cc1cc(C)n(CCNC(=O)C(=O)Nc2ccc3c(c2)N(S(C)(=O)=O)CCC3)n1	i
Cc1ccc(C2(COC(=O)C(C)C)CO2)c(OC(=O)C(C)C)c1 (configuration not stated)	i
CCN1CCc2c(sc(NC(=O)COc3ccccc3)c2-c2nc3ccccc3s2)C1	i
O=C(c1cccs1)N1CCN(c2cc(-n3cccn3)ncn2)CC1	i
Cc1nc(SCc2cccc(Cl)c2)[nH]c(=O)c1CC(=O)Nc1nccs1	i
COc1cc2c(cc1OC)CN(C(=O)/C=C/c1ccco1)CC2	i
CCn1c(C)cc(=O)c2cc(C(=O)Nc3nc(C)c(C)s3)ccc21	i
O=C(CCc1csc(NC(=O)c2cccs2)n1)Nc1ccc(Oc2ccccc2)cc1	i
COC(CNC(=O)C(=O)Nc1cccc(N2CCCS2(=O)=O)c1)OC	i
O=C(Nc1nc(-c2ccc3c(c2)CCCC3)cs1)C1CCN(S(=O)(=O)c2cccs2)CC1	i
N#Cc1nc(/C=C/c2ccccc2)oc1N1CCN(C(=O)c2ccccc2Cl)CC1	i
COc1ccc(C(=O)SC2=NC(C)CC(=O)N2)cc1OC (configuration not stated)	i

Additional structures:
Compound	GIRK2 activ
O=C(c1ccc(C(F)(F)F)cc1)N1CCC(COCc2ccc(F)cc2)CC1	i
COc1ccc(-n2c(C)cn3c4c(=O)n(Cc5ccccc5F)c(=O)n(C)c4nc23)cc1	i
CCCNC(=O)Cn1c(=O)c2c(N3CCN(C(=O)c4ccco4)CC3)ccnc2n(C)c1=O	i
O=C(NCCc1ccccc1)C1CCCN(c2ccc(-c3ccccc3)nn2)C1 (configuration not stated)	i
CC(C(=O)N1CCN(c2ncccn2)CC1)n1nc(-c2cccs2)ccc1=O (configuration not stated)	i
CCOC(=O)Cn1c(=O)c2c(nc3n(-c4cc(C)ccc4C)c(C)cn23)n(C)c1=O	i
Cc1noc(CNC(=O)C2CCN(C(=O)Nc3ccc4c(c3)OCO4)CC2)n1	i
O=C(NC1CCCC1)c1nnn(-c2ccc(NC(=O)c3ccccc3C(F)(F)F)cc2)n1	i
CCOc1ccc(C(=O)NCC(C)(O)Cc2ccc(OC)cc2)cc1OCC (configuration not stated)	i
O=C(c1cc(C2CC2)on1)N(Cc1ccsc1)Cc1ccco1	i
CCOc1ccc(-c2cc(C(=O)N3CCC(NC(=O)Cc4cccs4)CC3)[nH]n2)cc1	i
CS(=O)(=O)C1CCN(C(=O)C2CCN(S(C)(=O)=O)CC2)CC1	i
O=C(CCCc1ccccc1)NCCCn1ccnc1-c1ccccc1	i
CCOCC(=O)NCC1CCN(C(C)C)CC1	i
COC(=O)N1CCc2ccccc2C1C(=O)N1CCN(S(C)(=O)=O)CC1 (configuration not stated)	i
Cc1cc(C)c2c(n1)nn1c(N3CCN(CCOc4ccc(Cl)cc4)CC3)cc(C)nc21	i
Cc1ccc(CNC(=O)C2CCCN(c3cnc4ccccc4n3)C2)cc1 (configuration not stated)	i
COc1cccc2cc(C(=O)N3CCC4(CC3)OCCO4)oc12	i
CSCC(C)(O)CNS(=O)(=O)Cc1ccc(F)cc1 (configuration not stated)	i
O=C(CN1CCN(C(=O)CN2C(=O)CCC2=O)CC1)c1cccs1	i
CCCCc1ccc(NC(=O)Cn2nc(-c3cccs3)ccc2=O)cc1	i
COc1ccc(S(=O)(=O)N2CCC(c3nc(-c4ccccc4Br)no3)CC2)cc1	i
CC(=O)c1cccc(NC(=O)c2ccc(=O)n(C)n2)c1	i
O=C(Cn1cccc(-c2nc(-c3ccc(Br)cc3)no2)c1=O)NCc1ccccc1	i
CCc1c(C)nc2n(c1=O)CC(C(=O)Nc1cc3ccccc3oc1=O)CS2 (configuration not stated)	i
COc1ccc(OCc2noc(CNC(=O)c3ccccn3)n2)cc1	i
Cc1cccc(N2CCN(C(=O)c3ccc4c(=O)n5c(nc4c3)SCCC5)CC2)c1C	i
Cn1c(=O)n(CCCc2ccccc2)c(=O)c2c1nc1n2CCN1c1ccccc1	i
CC(=O)OC1C=C(CO)C(=O)C(OC(=O)CC(C)C)C1C(C)C (configuration not stated)	i
O=C(Nc1cnc(Oc2ccccc2F)nc1)Nc1ccc2c(c1)OCO2	i
COc1ccc(NC(=O)C(=O)NCCN2CCN(c3ccccc3)CC2)cc1OC	i
O=C(c1ccc(Cl)cc1)N1CCC(CSC2=NCCS2)CC1	i
CCN(C(=O)c1cc2c(=O)n(C)c(=O)n(C)c2n1Cc1ccccc1)c1cccc(C)c1	i
COc1ccc(-c2csc3c(=O)n(CC(=O)Nc4cc(OC)ccc4OC)cnc23)cc1	i
Cc1cccc(CC(=O)NCC2(O)CCc3ccccc3C2)c1 (configuration not stated)	i
CCCc1nnsc1C(=O)N1CCN(c2nc3c(OC)ccc(Cl)c3s2)CC1	i
O=C(NCCc1csc(-n2cccn2)n1)c1cncc(Br)c1	i
Cc1ccc(-n2ccnc(SCC(=O)NCc3ccccc3)c2=O)cc1	i
O=S(=O)(c1ccc2nc(N3CCN(c4cccc(Cl)c4)CC3)cnc2c1)N1CCCCC1	i
COc1ccc(CNC(=O)Nc2ccc3c(c2)OCC(C)(C)C(=O)N3C)cc1OC	i
CCOc1coc(C(=O)NCc2ccccc2OC)cc1=O	i
Cc1cn2c3c(=O)n(Cc4ccccc4Cl)c(=O)n(C)c3nc2n1-c1ccc(S(N)(=O)=O)cc1	i
CC(=O)N(CCN1CCOCC1)c1nc2c(C)cc(Cl)cc2s1	i
O=C(CCCCCn1nnc2ccccc2c1=O)Nc1cccc(F)c1	i
C=CCn1c(=O)c2c(nc3n2CCN3c2cc(C)ccc2C)n(C)c1=O	i
CC1CN(Cc2cc(=O)oc3cc4c(cc23)CCC4)CC(C)O1 (configuration not stated)	i
COc1cc(NC(=O)CSc2nccn3nc(-c4ccc(C)cc4)cc23)cc(OC)c1OC	i
Cc1ccc(/C=C/S(=O)(=O)NCc2sc(-c3ccco3)nc2C)cc1	i
O=C(Cc1cc(=O)[nH]c(SCc2ccccc2)n1)NCCc1ccc(Cl)cc1	i
COc1ccccc1-c1c(C)oc2c3c(ccc2c1=O)OCN(Cc1ccncc1)C3	i
Cc1nc(N2CCN(C(=O)COc3ccc(Cl)cc3Cl)CC2)cc(-n2cccc2)n1	i
Cc1ccc(NC(=O)Cn2nc3ccc(SC(C)(C)C)nn3c2=O)c(C)c1	i
CCCSc1nnc(NC(=O)c2ccc3nnsc3c2)s1	i
CC(C)c1ccc(NC(=O)C(=O)NCCCN2CCN(c3ccccc3)CC2)cc1	i
CN(C)C(CNS(=O)(=O)c1cccc2ccccc12)c1cn(C)c2ccccc12 (configuration not stated)	i
Cc1nc2c(c(=O)n1CC(=O)NCc1ccc(F)cc1F)CN(Cc1ccccc1)CC2	i

(next part)
Compound	GIRK2 activ
O=C(Nc1ccc(Cl)cn1)c1cccnc1-c1nc2ccccc2s1	i
CN(C)C(CNC(=O)NCc1cccs1)c1cn(C)c2ccccc12 (configuration not stated)	i
COc1ccc(CNc2nc3c(S(=O)(=O)c4ccc(Cl)cc4)nnn3c3ccsc23)cc1	i
Cc1noc(C)c1S(=O)(=O)NCCn1nc(C(F)(F)F)n(C)c1=O	i
CS(=O)(=O)NC(=O)CCC/C=C\C[C@H]1C(=O)C[C@@H](O)[C@@H]1/C=C/[C@@H](O)COc1ccccc1	i
COc1ccc(-c2c(NC(=O)c3ccccc3)oc3ccccc3c2=O)cc1	i
O=C(Nc1nc2c(s1)CN(C(=O)C1(c3ccccc3)CCOCC1)CC2)c1ccoc1	i
COc1ccc(CCC(=O)NCc2nn(C3CCCC3)c(=O)c3ccccc23)cc1	i
Cc1ccc(/C=C/S(=O)(=O)N2CCc3nc(NC(=O)c4cc(C)on4)sc3C2)cc1	i
N#Cc1ccc(COCC2CCN(Cc3ccc(F)c(F)c3)CC2)cc1	i
CCOC(=O)C1CCN(C2=NS(=O)(=O)c3ccccc32)CC1	i
O=C(/C=C/c1ccccc1Cl)Nc1cccc2ccc(-n3ccnc3)nc12	i
Cc1cc(C)n(-c2ccc(N3CCC(C(=O)Nc4ccc(F)cc4F)CC3)nn2)n1	i
O=C(Cc1csc(SCc2ccncc2)n1)NCc1ccc2c(c1)OCO2	i
COc1cccc(NC(=O)CN2CCN(Cc3nc(-c4ccc(F)cc4)cs3)CC2)c1	i
COc1ccc(C(=O)Nc2nnc(-c3ccsc3)o2)cc1OC	i

High-throughput results from PubChem BioAssay.
